Rango release inh: inhibitors of RanGTP-induced Rango-importin beta complex dissociation. actives 0.071% (n = 340,000). AID 540253. Biochemical FRET Rango-importin beta, RanGTP-induced dissociation. O95149+P62826. Potency, µM (series often up to 46.1 µM), for inactives: top-dose activity change, negative = inhibition; active means falling FRET ratio curve, often poorly fitted, with flat reads before Ran was added; inconclusive means other falling curves, or compound fluorescence or quenching; inactive means flat or rising ratio curve;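 also: potency is read from the fitted curve at half-maximal effect; % of control where 0% means no effect; nearly all actives have a fitted effect of over 45% in size; -100% = wells without RanGTP and RCC1; the record marks most hits as doubtful in a second field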
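Recombinant Rango FRET biosensor (EYFP–snurportin 1 IBB–cerulean CFP10) at 0.1 uM premixed with 0.25 uM importin beta in PBS, 1 mM DTT, 0.02% Tween-20, 0.1% BSA. Compound added 5 min; RanGTP-RCC1 (0.6 uM Ran, 2 mM GTP, 0.2 uM RCC1) then triggers release, read at 45 min.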
GLA inh pH 4.5: blocks human alpha-galactosidase A at pH 4.5 | activity change, negative = inhibition, % at 105 µM | purified enzyme, 4-MU-alpha-Gal fluorescence, pH 4.5 | P06280 | 230,000 tested, under 10 active; inconclusive = small, poorly fitted or top-dose-only inhibition, or a rising curve; inactive = flat fitted curve, though single readings scatter; no compound was filed as active;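 also: 0% = full activity with enzyme and -100% = basal without enzyme; dose as in the result columns while the protocol names 77 µM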
miR-21 FLuc: miR-21 reporter, rising signal; HeLa miR-21 FLuc reporter, luciferase, 48 h; Potency, µM (doses to about 38.3 µM), without a hit: top-dose reporter change, positive = more light; 340,000 tested, under 10 active; active = well fitted rising curve with a large enough effect; inconclusive = small, poorly fitted or top-dose-only effect; inactive = no such curve, though single readings can be large or run the other way;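 also: % of control where 0% means no effect; miR-21 action dims this reporter so a rising signal means less miR-21 action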
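HeLa cells endogenously expressing miR-21, stably carrying CMV-driven firefly luciferase with a downstream miR-21 binding site, 2000 cells/well. Titrations up to approximately 40 uM, 48 hours; luciferase luminescence read.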
Rango complex inh: prevents formation of the Rango-importin beta complex; actives 0.031% (n = 340,000); AID 540263; Potency, µM (highest dose often 92.2 µM), without a hit: at the top dose inhibition of complex formation; Rango CFP/YFP FRET sensor + importin beta, 45 min; active = rising FRET ratio curve, often small or poorly fitted; inconclusive = mostly compound fluorescence or quenching in the first reads; inactive = flat curves in all reads;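 also: potency is read from the fitted curve at half-maximal effect; 0% = DMSO wells and 100% = buffer wells lacking importin beta; nearly all actives have a fitted effect of over 15% in size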
Target sequence (Q14974 whole entry, looked up): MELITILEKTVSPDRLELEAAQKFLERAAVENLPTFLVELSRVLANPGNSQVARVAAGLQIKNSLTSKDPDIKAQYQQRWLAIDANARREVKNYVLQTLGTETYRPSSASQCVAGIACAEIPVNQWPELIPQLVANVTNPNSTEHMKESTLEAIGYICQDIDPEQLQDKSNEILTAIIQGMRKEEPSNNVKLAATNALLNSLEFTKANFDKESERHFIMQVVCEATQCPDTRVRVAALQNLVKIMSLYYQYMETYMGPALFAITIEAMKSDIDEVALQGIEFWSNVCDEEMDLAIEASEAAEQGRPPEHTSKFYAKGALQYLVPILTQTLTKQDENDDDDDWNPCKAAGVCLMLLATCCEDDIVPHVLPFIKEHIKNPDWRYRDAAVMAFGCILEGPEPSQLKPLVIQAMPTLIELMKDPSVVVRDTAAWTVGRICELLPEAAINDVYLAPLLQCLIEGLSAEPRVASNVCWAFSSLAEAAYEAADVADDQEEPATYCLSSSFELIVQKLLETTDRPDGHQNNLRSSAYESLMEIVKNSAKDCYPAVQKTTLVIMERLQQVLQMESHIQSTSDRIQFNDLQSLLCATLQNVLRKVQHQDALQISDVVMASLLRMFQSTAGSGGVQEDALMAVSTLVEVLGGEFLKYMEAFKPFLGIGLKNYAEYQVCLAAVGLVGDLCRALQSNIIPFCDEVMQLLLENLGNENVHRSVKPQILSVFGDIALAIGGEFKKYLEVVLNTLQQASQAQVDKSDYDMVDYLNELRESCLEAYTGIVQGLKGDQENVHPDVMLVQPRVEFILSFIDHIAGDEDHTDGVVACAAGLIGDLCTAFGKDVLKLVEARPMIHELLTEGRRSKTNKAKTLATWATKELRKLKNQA
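FRET biosensor Rango (snurportin 1 IBB between N-terminal EYFP and C-terminal Cerulean), 50 nM in PBS/1 mM DTT/0.02% Tween-20/0.1% BSA, preincubated 5 min RT with compound; 0.125 microM importin beta added, 45 min RT, CFP/YFP FRET ratio read.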
Numbers without * were called inactive; ? = inconclusive; . = not tested or not shown; & = joins results of further samples. An excerpt. The share of hits here may be higher or lower than overall.

Start of the data: the first 6 entries, ahead of the listing:
The line under a structure holds: Rango release inh, GLA inh pH 4.5, miR-21 FLuc, Rango complex inh
> CC1CCCCC1NC(=O)C1CCN(S(=O)(=O)N2CCCCCC2)CC1 (stereo unspecified)
    10%, 6, 1%, -1.5%
> Cc1cc(S(=O)(=O)Nc2cccc([N+](=O)[O-])c2)c(C)s1
    1%, ., 0%, 3.2%
> O=C(Oc1ccc(N2C(=O)CCC2=O)cc1)c1ccccc1Cl
    1%, -4, -3%, 10%
> Cc1cccc(OCc2nnc(SCC(=O)NCCc3ccccc3)o2)c1
    19%, 2, -9%, -0.6%
> Cc1ccc(S(=O)c2snnc2C)cc1 (stereo unspecified)
    11%, ., 5%, -1.2%
> c1ccc(CCCNc2ncnc3nc[nH]c23)cc1
    -19%, 2, -30%, -1.4%

All compounds of this part, repeating the preview:
The line under a structure holds: Rango release inh, GLA inh pH 4.5, miR-21 FLuc, Rango complex inh
> CC1CCCCC1NC(=O)C1CCN(S(=O)(=O)N2CCCCCC2)CC1 (stereo unspecified)
    10%, 6, 1%, -1.5%
> Cc1cc(S(=O)(=O)Nc2cccc([N+](=O)[O-])c2)c(C)s1
    1%, ., 0%, 3.2%
> O=C(Oc1ccc(N2C(=O)CCC2=O)cc1)c1ccccc1Cl
    1%, -4, -3%, 10%
> Cc1cccc(OCc2nnc(SCC(=O)NCCc3ccccc3)o2)c1
    19%, 2, -9%, -0.6%
> Cc1ccc(S(=O)c2snnc2C)cc1 (stereo unspecified)
    11%, ., 5%, -1.2%
> c1ccc(CCCNc2ncnc3nc[nH]c23)cc1
    -19%, 2, -30%, -1.4%
> CN1C(=O)/C(=C/c2ccc(O)c([N+](=O)[O-])c2)NC1=S
    0%, -2, -1%, ?
> COc1ccc(S(=O)(=O)N2CCC(C(=O)N[C@@H](C)C(=O)NC3CCCC3)CC2)cc1
    -9%, ., 0%, ?
> CC1CC(C)CN(S(=O)(=O)c2ccc(C(=O)Nc3nnc(-c4cccs4)o3)cc2)C1 (stereo unspecified)
    13%, -3, 20%, -4.4%
> COc1cc(/C=N/NC(=O)Nc2cccc3nsnc23)cc(OC)c1OC
    ?, 2, 6%, ?
> CN1C2CCC1CC(NC(=O)CSc1ccc(Cl)cc1)C2 (stereo unspecified)
    -1%, -2, -9%, -3.4%
> Cc1onc(-c2ccncc2)c1C(=O)O
    -11%, -14, 0%, 0.2%
> COc1ccccc1-c1cn[nH]c1-c1ccc(OCc2ccc(F)cc2)cc1O
    6%, -10, 8%, 4.1%
> CCn1c(CC(=O)Nc2ccc(C)c(Cl)c2)nnc1SCC(=O)Nc1nc(C)cs1
    1%, 7, 0%, -1.0%
> CC(Oc1ccc(Br)cc1)C(=O)N1CCC(C(N)=O)CC1 (stereo unspecified)
    2%, -1, -1%, 0.4%

The line under a structure holds: Rango release inh, GLA inh pH 4.5, miR-21 FLuc, Rango complex inh
> Cc1ccccc1OCCC(=O)OCC(=O)NCCNC(=O)COC(=O)CCOc1ccccc1C
    -7%, ., ., 1.1%
> N#CNC(=Nc1ccc(Cl)cc1)Oc1ccccc1
    26%, -4, -11%, -0.3%
> O=C(C(=O)N1CCOCC1)c1cn(CC(=O)N2CCCCC2)c2ccccc12
    -1%, ., 1%, 0.7%
> CCOC(=O)C(NC(C)=O)C(O)c1ccc([N+](=O)[O-])cc1 (stereo unspecified)
    5%, -2, -2%, 2.5%
> c1ccc(OCCCCn2cnc3ccccc32)cc1
    2%, -8, 0%, 2.4%
> CCc1ccccc1NC(=O)CNC(=O)c1ccccc1OCc1c(C)noc1C
    0%, ., ., 0.2%
> O=C(/C=C/c1ccccc1Cl)NC1CCS(=O)(=O)C1 (stereo unspecified)
    -4%, -4, -7%, 0.0%
> COc1cc2c(cc1OC)-c1cc(Nc3ccc4c(c3)OCCO4)nc(=O)n1CC2
    -29%, 8, -81%, ?
> CCCOc1ccc(CN(C(=O)c2cccc(OC)c2)C2CCS(=O)(=O)C2)cc1 (stereo unspecified)
    -2%, ., -7%, ?
> CC1CC(C)CN(S(=O)(=O)CCNC(=O)c2ccc3c(c2)OCO3)C1 (stereo unspecified)
    -14%, ., ., 0.5%
> O=C(NC1CCCC1)C(=O)N(c1ccccc1F)C(C(=O)NCC1CCCO1)c1cccs1 (stereo unspecified)
    -7%, 5, 16%, ?
> Cc1cc(/C=C2/NC(=O)N(Cc3ccccc3F)C2=O)c(C)n1C(C)C
    ?, -8, -14%, ?
> CCC(CC)NC(=O)COC(=O)CCC(=O)c1cccs1
    -3%, 3, -3%, -6.0%
> COc1cc2[nH]c(-c3ccc(C)cc3)cc(=O)c2cc1OC
    -10%, -3&4, -51%, 4.8%
> CN(C)S(=O)(=O)Oc1ccc(C(=O)Nc2cccc(Cl)c2)cc1
    -14%, -4, 10%, -0.7%

The line under a structure holds: Rango release inh, GLA inh pH 4.5, miR-21 FLuc, Rango complex inh
> COc1ccccc1-n1cc2c([N+](=O)[O-])cc([N+](=O)[O-])cc2n1
    -10%, ., -6%, 4.0%
> CCCOc1cccc(NC(=O)c2c(-c3ccccc3)noc2C)c1
    20%, 0, 21%, 3.9%
> CCOC(=O)[C@H]1[C@H]2COc3ccc(C)cc3[C@@H]2N2C(=O)CN(Cc3ccc(Cl)cc3)C(=O)[C@@]12C
    -4%, ., ., -0.1%
> COc1ccc(C(=O)NC(=S)Nc2cc3oc4ccccc4c3cc2OC)cc1
    -5%, 1, -3%, -2.2%
> COc1ccc(C)cc1NC(=O)c1ccc(S(=O)(=O)N2CCOCC2)cc1
    4%, -4, -5%, -0.3%
> CC(=O)NCCC(=O)Nc1nc(-c2c[nH]c3ccccc23)cs1
    -21%, ., -13%, ?
> CC[C@H](C)[C@H](NS(=O)(=O)c1ccc(C)cc1)C(=O)N1CCC(C(=O)N[C@H](C(=O)O)C(C)C)CC1
    -15%, 4, -1%, 0.6%
> Cc1cc(C)c(S(=O)(=O)Nc2ccc(N(C)C)cc2)c(C)c1-n1cnnn1
    -6%, ., -11%, -2.0%
> O=C1/C(=C/c2cccc([N+](=O)[O-])c2)Oc2cc(O)ccc21
    ?, ., -5%, ?
> Cc1ccc(Cl)cc1NC(=O)COC(=O)C1CCCCC1
    0%, -4, 2%, 3.9%
> CC1(C)CC(=O)C(C(C2=C(O)CC(C)(C)CC2=O)c2ccc([N+](=O)[O-])cc2)C(=O)C1 (stereo unspecified)
    1%, -5, -3%, 0.7%
> COc1ccc(C2/C=C\CN(S(=O)(=O)c3ccc4ccccc4c3)CC(=O)N2Cc2ccc(F)cc2)cc1 (stereo unspecified)
    -6%, 5, -1%, -1.5%
> CC(C(=O)NCc1ccccc1Cl)n1cc([N+](=O)[O-])cn1 (stereo unspecified)
    22%, ., 1%, 2.7%
> CSc1nnc(-c2ccncc2)n1/N=C/c1cn(-c2ccccc2)nc1-c1ccc(Cl)cc1
    -6%, -16, 0%, -2.3%
> CCOC(=O)N1CCC(n2c(SCC(=O)NCc3ccccc3)nc3ccccc3c2=O)CC1
    12%, -7, -5%, -2.2%

The line under a structure holds: Rango release inh, GLA inh pH 4.5, miR-21 FLuc, Rango complex inh
> CN(c1ccc(C(=O)Nc2ccc(CC#N)cc2)cc1)S(C)(=O)=O
    19%, 2, -6%, -1.3%
> CC1(c2ccc3noc(-c4ccc(F)cc4)c3c2)OCCO1
    ?, 0, -11%, ?
> CCCC(O)(CCC)C(=O)NNc1ccc(C)cc1
    34%, -16, 13%, 5.0%
> Cc1nc(Oc2cccc(Cl)c2)c2oc3ccccc3c2n1
    6%, -7, -8%, -0.2%
> Cc1oc(-c2ccccc2F)nc1CS(=O)(=O)CC(=O)NCCN(C)C1CCCCC1
    -14%, -9, -4%, -0.2%
> C=CCn1c(SCC(N)=O)nc(C)cc1=O
    ?, -1, 0%, -2.1%
> CC(C)COc1ccc(Cc2cnc(N)nc2N)cc1
    3%, ., 8%, 0.9%
> Cc1cc(=O)[nH]c(NCc2ccccc2)n1
    16%, 4, 1%, 2.1%
> COc1ccccc1N1C(=O)C(=O)N(C)C1=O
    -5%, ., ., 0.0%
> O=C(CSc1nc2c([nH]c3ccccc32)c(=O)n1-c1ccccc1)NCC1CCCO1 (stereo unspecified)
    6%, ., 1%, -0.3%
> Cc1cccc(/C(N)=N/OC(=O)c2ccoc2C)c1
    6%, ., -50%, -1.0%
> COc1ccc(C)cc1S(=O)(=O)N1CCCC(C(=O)NCc2ccccn2)C1 (stereo unspecified)
    -7%, ., 3%, -1.3%
> Cc1noc(C)c1COc1ccccc1C(=O)N(C)Cc1ccc(F)cc1
    13%, ., ., -2.6%
> C/C(=N\NC(=O)c1cc(C)oc1C)c1ccc(N2CCOCC2)cc1
    -1%, 6, -35%, -0.5%
> COc1ccc(NS(=O)(=O)c2ccc(F)cc2F)cn1
    1%, ., 1%, 0.3%

Grouped by structure, the compounds so far containing two or more sulfur atoms
The line under a structure holds: Rango release inh, GLA inh pH 4.5, miR-21 FLuc, Rango complex inh
> Cc1cc(S(=O)(=O)Nc2cccc([N+](=O)[O-])c2)c(C)s1
    1%, ., 0%, 3.2%
> Cc1ccc(S(=O)c2snnc2C)cc1 (stereo unspecified)
    11%, ., 5%, -1.2%
> CC1CC(C)CN(S(=O)(=O)c2ccc(C(=O)Nc3nnc(-c4cccs4)o3)cc2)C1 (stereo unspecified)
    13%, -3, 20%, -4.4%
> CCn1c(CC(=O)Nc2ccc(C)c(Cl)c2)nnc1SCC(=O)Nc1nc(C)cs1
    1%, 7, 0%, -1.0%

Carrying on:
The line under a structure holds: Rango release inh, GLA inh pH 4.5, miR-21 FLuc, Rango complex inh
> CN(CCOc1ccc(Cl)cc1)C(=O)c1cccc(S(=O)(=O)N2CCN(c3ccc(F)cc3)CC2)c1
    2%, ., ., -0.5%
> CN(C)S(=O)(=O)c1ccc(NC(=O)CN2C(=O)NC(Cc3ccccc3)C2=O)cc1 (stereo unspecified)
    0%, ., ., -0.6%
> NC(=O)c1ncn([C@@H]2O[C@H](CNCc3cnc(N4CCOCC4)nc3)[C@@H](O)[C@H]2O)n1
    -7%, ., ., 0.9%
> COc1ccc(-c2nn(C)c3sc(C(=O)N4CCOCC4)cc23)cc1OC
    -1%, -2, -13%, 0.4%
> CC(=O)c1cccc(NC(=O)CCNS(=O)(=O)c2cccc3nsnc23)c1
    17%, 7, 1%, -1.5%
> Cc1ccc2oc(=O)n(CCOc3ccccc3)c2c1
    1%, -4, -51%, -2.7%
> O=C(COC(=O)C1CCCCC1)NCCc1ccccc1
    -11%, 4, 17%, -2.4%
> O=C(COC(=O)c1cc[n+]([O-])cc1)NC(=O)c1ccc(OC(F)F)cc1
    -2%, ., ., -0.1%
> CCCCn1c(N)c(N(CCC(C)C)C(=O)C2CCCC2)c(=O)[nH]c1=O
    1%, ., ., -0.9%
> COc1ccc(Cl)cc1S(=O)(=O)N1CCN=C1C
    15%, -6, -3%, 2.9%
> CCOC(=O)C1CCCN(c2cc(=O)n(Cc3ccc(F)cc3)c(=O)[nH]2)C1 (stereo unspecified)
    -7%, 13, -2%, 1.0%
> CNc1nc(N)c([N+](=O)[O-])c(Nc2cccc(Cl)c2)n1
    7%, 2, -8%, -0.4%
> CC(C#N)Sc1nnc(Nc2ccccc2)s1 (stereo unspecified)
    22%, -1, -16%, -4.0%
> CC(=O)c1cccc(NC(=O)CN(C)S(=O)(=O)c2ccc3c(c2)CCC(=O)N3)c1
    14%, ., 1%, -2.0%
> COC(=O)c1cc2c(=O)c3ccccc3oc2nc1/C=C/N(C)C
    ?, ., -25%, ?
> CC(C)(C)c1cc(C(=O)NCc2ccccc2)ccn1
    -9%, ., 5%, -1.4%
> CCN(CC)CCCN1C(=O)C(O)=C(C(C)=O)C1c1cccc(OC)c1 (stereo unspecified)
    ., 3, -5%, .
> CC1CC(C)CN(CCCNC(=O)c2nn(C)c3c2CS(=O)(=O)c2ccccc2-3)C1 (stereo unspecified)
    -6%, ., -3%, 3.8%

High-throughput results deposited in PubChem BioAssay by National Center for Advancing Translational Sciences (NCATS).
